High-throughput results from PubChem BioAssay.
VDR inh – blocks the human vitamin D receptor | P11473 | VDR-SRC2-3 peptide fluorescence polarization, 2 h | Potency, µM, inactives show max response, negative = inhibition, most hits filed as inhibitors | actives 0.93% (n = 400,000) | AID 504847; active means well fitted inhibition curve with a large enough effect; inconclusive means small, poorly fitted or top-dose-only effect, or another doubt; inactive means no such curve, though single readings can be large or run the other way; further: series mostly up to about 120 µM
Target sequence (P11473 whole entry, looked up): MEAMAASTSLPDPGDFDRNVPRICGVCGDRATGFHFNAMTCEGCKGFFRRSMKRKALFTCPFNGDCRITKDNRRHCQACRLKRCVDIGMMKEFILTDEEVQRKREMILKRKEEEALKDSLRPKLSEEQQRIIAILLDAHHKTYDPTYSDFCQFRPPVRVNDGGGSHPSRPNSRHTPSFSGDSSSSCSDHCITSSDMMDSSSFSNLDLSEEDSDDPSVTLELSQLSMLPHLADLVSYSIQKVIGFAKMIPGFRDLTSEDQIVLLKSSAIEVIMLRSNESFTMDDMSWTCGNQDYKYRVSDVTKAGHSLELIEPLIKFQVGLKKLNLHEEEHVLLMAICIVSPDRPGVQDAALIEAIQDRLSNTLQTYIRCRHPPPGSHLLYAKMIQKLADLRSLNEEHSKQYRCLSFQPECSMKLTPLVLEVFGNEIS
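Signal is fluorescence polarization, reporting how far test compounds block the interaction of VDR with the SRC2-3 coregulator peptide after a 2 h room-temperature incubation.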
Numbers without * were called inactive; u = inconclusive; & = joins results of further samples. On the % scale 0 is the no-effect control and ±100 the full control effect; potency means the concentration at half of the fitted maximal effect. The list is partial; rates above refer to the full screens.

| molecule | VDR inh |
| --- | --- |
| Cc1ccc(NC(=O)COc2ccc(Cl)cc2Cl)cc1S(=O)(=O)N1CCOCC1 | 4% |
| c1ccc(-n2cc(CNCCc3cscn3)c(-c3ccc4c(c3)OCO4)n2)cc1 | 9% |
| CCN1CCCC1CNC(=O)c1cc(OC)c(OC)c(OC)c1 (centres undefined) | -7% |
| COc1ccc(Cl)cc1NC(=O)Nc1cccc([N+](=O)[O-])c1C | 11% |
| O=C(c1ccc(F)cc1)n1nc(-c2ccccc2)nc1NCc1ccc(F)cc1 | 1% |
| CC(=O)N1CCC2(CC1)CN(c1ccccn1)C2 | -5% |
| Cc1cccc(-n2c(O)c(C=Nc3ccccc3N)c(=O)[nH]c2=O)c1 | 14% |
| CC[C@@]1(C(=O)OC)N[C@H](CN(C)S(=O)(=O)c2ccccc2)[C@@H]2C(=O)N(C)C(=O)[C@@H]21 | -9% |
| O=C(CN(C(=O)c1csnn1)c1ccc(Cl)cc1)NCCc1ccccc1 | 18% |
| C=CCCN(C(CC(C)C)C(=O)OC)S(=O)(=O)c1ccccc1Br (centres undefined) | -4%&-19% |
| O=C(Nc1c2c(nn1-c1cccc(Cl)c1)CS(=O)C2)c1ccc2c(c1)OCO2 (centres undefined) | 1% |
| Cc1nn(-c2ccc(Cl)c(Cl)c2)c(C)c1C(=O)O | 2% |
| COc1cccc(-c2nn(-c3ccccc3)cc2C(=O)NCC(=O)O)c1 | 2% |
| CC(=O)NC(CC(=O)Oc1ccc(C)cc1Br)c1ccccc1 (centres undefined) | -4% |
| CCN1CCN(c2nc(Nc3ccccc3F)nc(N)c2[N+](=O)[O-])CC1 | -13% |
| COc1ccc(NS(=O)(=O)c2cccc(C(=O)OCC(=O)c3c(N)n(C)c(=O)n(C)c3=O)c2)cc1 | -3% |
| COc1ccc(C2C=C3CN(C(=O)OC(C)(C)C)S(=O)(=O)C3CC2OC(=O)c2cccc(C)c2)cc1 (centres undefined) | -2% |
| Cc1c(Cl)ccc2sc(N3CCN(C(=O)C4CC4)CC3)nc12 | 6% |
| Cc1ccc(NC(=O)CCNS(=O)(=O)c2ccc3c(c2)CCN3C(=O)C2CC2)c(Cl)c1 | 3% |
| COc1ccc(C(=O)NC2CCCc3c2cnn3-c2cccc(C)c2C)o1 (centres undefined) | 6% |
| O=C(NCc1ccccc1C(F)(F)F)C1CCC(=O)N(CCCc2ccccc2)C1 (centres undefined) | 4% |
| CC(=O)NC(Cc1cccc(C)c1)C(=O)NC1CCN(C(=O)c2ccc([N+](=O)[O-])cc2)CC1 (centres undefined) | -8% |
| Cc1ccc(C(=O)OC(C)C(=O)Nc2ccc3c(c2)OCO3)c(O)c1 (centres undefined) | -11% |
| Cc1sc(-n2cccc2)c(C(C)NC(=O)Nc2ccccc2Cl)c1C (centres undefined) | 4% |
| O=C(CCS(=O)(=O)c1ccc(Cl)cc1)Nc1cccc(S(=O)(=O)N2CCCCCC2)c1 | 8% |
| O=C(Nc1ccc(F)cc1Cl)C1Cc2ccccc2N1C(=O)c1ccccc1 (centres undefined) | 1% |
| Cc1ccc(-c2noc(CN(C(=O)c3ccc(C(C)(C)C)cc3)C(C)C)n2)cc1 | -3% |
| COC(=O)c1ccc(OC(=O)c2cccs2)cc1 | 2% |
| COc1nc(OC/C(N)=N/O)nc(N2CCOCC2)n1 | -4% |
| COc1cc(/C=C/C(=O)O)ccc1OS(=O)(=O)c1ccc(C)cc1 | 7% |

Entries listed so far that have an aryl methoxy group, in the order listed:
| molecule | VDR inh |
| --- | --- |
| CCN1CCCC1CNC(=O)c1cc(OC)c(OC)c(OC)c1 (centres undefined) | -7% |
| COc1ccc(Cl)cc1NC(=O)Nc1cccc([N+](=O)[O-])c1C | 11% |
| COc1cccc(-c2nn(-c3ccccc3)cc2C(=O)NCC(=O)O)c1 | 2% |
| COc1ccc(NS(=O)(=O)c2cccc(C(=O)OCC(=O)c3c(N)n(C)c(=O)n(C)c3=O)c2)cc1 | -3% |
| COc1ccc(C2C=C3CN(C(=O)OC(C)(C)C)S(=O)(=O)C3CC2OC(=O)c2cccc(C)c2)cc1 (centres undefined) | -2% |
| COc1ccc(C(=O)NC2CCCc3c2cnn3-c2cccc(C)c2C)o1 (centres undefined) | 6% |
| COc1nc(OC/C(N)=N/O)nc(N2CCOCC2)n1 | -4% |
| COc1cc(/C=C/C(=O)O)ccc1OS(=O)(=O)c1ccc(C)cc1 | 7% |

Continuation:
| molecule | VDR inh |
| --- | --- |
| COc1ccc(OC)c(N=C2C(=O)Nc3ccccc32)c1 | -12% |
| COc1ccc2c(c1)c(CC(=O)O)c(C)n2C(=O)c1ccc(Cl)cc1 | u |
| CCc1ccccc1NC(=O)Cn1c(=O)n(-c2ccc(C)cc2)c(=O)c2c1c1cc(C)ccc1n2C | 11% |
| CN1c2ccccc2-c2nc3ccccc3n2C1c1ccncc1 (centres undefined) | -10% |
| Cc1ccccc1C(=O)N1CCC(C(=O)Nc2ccc(S(=O)(=O)N3CCOCC3)cc2)CC1 | 10% |
| CN(Cc1ccccc1)S(=O)(=O)c1cccs1 | 15% |
| COc1cc(C)nc(NS(=O)(=O)c2ccc(C)cc2)n1 | 13% |
| Cc1ccc(S(=O)(=O)N(C)c2ccccc2C(=O)NC2CCCC2)cc1 | -30% |
| CN(Cc1ccc(OC(F)F)cc1)C(=O)c1ccc2nccnc2c1 | 15% |
| CCOc1ccc(NC(=O)c2ccc(OCC3CCCO3)cc2)cc1S(=O)(=O)N(CC)CC (centres undefined) | 8% |
| COc1ccccc1N(CC(=O)NCCSCc1ccccc1)S(=O)(=O)c1ccc(C)cc1 | -7%&0% |
| Cc1cccc(NC(=O)CCc2ccc(S(=O)(=O)NC3CCCCC3)cc2)c1 | -6% |
| CC1CCN(C(=O)CSc2nnc(-c3cccs3)o2)CC1 | -15% |
| Cc1ccc(S(=O)(=O)N2CCC(C)CC2)cc1C(=O)NCCN1CCOCC1 | -10% |
| COc1cc2c3c(c1OC)C1(C=CC(=O)C=C1)CC3N(C(=O)c1ccccc1)CC2 (centres undefined) | 0% |
| Cc1ccc(-n2c(C)n[nH]c2=S)cc1C | -4% |
| CCOc1ccc(NC(=O)CN(C)C(=O)C2CCN(c3ncnc4sc(C)c(C)c34)CC2)cc1OCC | 1% |
| CC(OC(=O)c1cc2sccc2n1C)C(=O)NC(C)(C)C (centres undefined) | 4% |
| O=C(Nc1ccc(OC(F)(F)F)cc1)C1CCCN(S(=O)(=O)c2cccnc2)C1 (centres undefined) | 2% |
| O=C(c1cnc2n(c1=O)CCS2)N1CCc2ccccc21 | -1% |
| O=S(=O)(Nc1ccccc1N1CCOCC1)c1ccc(Cl)cc1 | 15% |
| O=C(CCN1C(=O)S/C(=C/c2ccc(Cl)cc2)C1=O)N1CCOCC1 | -4% |
| O=C(Nc1ccccc1)OCCOc1ccc(Cl)cc1Cl | -15% |
| O=C1NC[C@H](c2ccccc2)OC(=O)[C@@H](Cc2ccc(F)cc2)C/C=C\C[C@H]1CC(=O)N(CCO)Cc1ccccc1 | 10% |
| CCc1cc[n+](-c2nc3ccccc3nc2[N-]S(=O)(=O)c2ccc(Br)s2)cc1 | 2% |
| COc1ccc(C2C(C#N)=C(N)OC3=C2C(=O)CCC3)cc1Cn1cc([N+](=O)[O-])cn1 (centres undefined) | -6% |
| COc1ccc(C2C3C(C)=NN=C3CC(C)(O)C2C(C)=O)cc1 (centres undefined) | -9% |
| O=C(Nc1ccc(Cl)cc1C(=O)N1CCCC1)c1cccc([N+](=O)[O-])c1 | -16% |
| COc1ccc(NC(=O)Cc2nnc(SCC(=O)Nc3ccc(F)cc3)n2C)cc1 | -11% |
| Cc1cc(C)n2nc(SCC(=O)N(Cc3ccccc3)C3CCS(=O)(=O)C3)nc2n1 (centres undefined) | -3% |
| CC1CN(c2ccc(C(F)(F)F)cc2[N+](=O)[O-])CCN1S(C)(=O)=O (centres undefined) | -17% |
| Nc1ccccc1Nc1cccc(C(F)(F)F)c1 | -15% |
| O=C(c1cccc(F)c1)N1CCCN(C(=O)c2cccc(F)c2)CC1 | -12% |
| COc1ccc2[nH]cc(CCNC(=O)COc3ccc4ccc(=O)oc4c3)c2c1 | -1% |
| CC(Sc1nnc(-c2ccccc2F)n1C1CC1)C(=O)NCc1ccco1 (centres undefined) | -1% |
| Cn1cccc1C(=O)NCCc1ccccc1 | 2% |
| CCCn1c(SCC(=O)c2ccc(CC)cc2)n[nH]c1=O | -26% |
| CCCNC(=S)Nc1ccc(F)cc1F | 7% |
| O=C(NS(=O)(=O)Nc1ccc(Br)cn1)c1c[nH]c2ccccc12 | 13% |
| CC(NC(=O)CN1CCN(c2ncccn2)CC1)c1ccc(F)cc1 (centres undefined) | 6% |
| CC(C)[C@H](NC(=O)c1ccccc1)C(=O)OCC(=O)c1ccc(S(=O)(=O)N2CCCCC2)cc1 | 10% |
| CCOC(=O)c1c(C)[nH]c(C(=O)OCC(=O)c2ccc(OC)cc2OC)c1C | -7% |
| COc1ccc(Cl)cc1NC(=O)Nc1cc(C)on1 | -1% |
| Cc1cccc(CNC(=O)CS(=O)(=O)c2cccc3nsnc23)c1 | 4% |
| Oc1cc(Cc2ccccc2)cnc1CN1CCOCC1 | 8% |
| Cc1cc(-c2cc(C(=O)NCc3ccccc3)on2)nc(S(C)(=O)=O)n1 | 7% |
| Cc1cccc(NC(=O)CSc2nc3c(oc4ccccc43)c(=O)n2-c2ccc(F)cc2)c1 | -11% |
| COc1cccc(CN2C(=O)CN(C3CCCCC3)C(=O)C2c2ccc(OC(C)C)c(OC)c2)c1 (centres undefined) | 8% |
| CCOC(=O)CC1C(=O)NCCN1C(=O)c1ccc(C)cc1 (centres undefined) | -3% |
| N#Cc1ccc(C(=O)Nc2cc(C3CC3)nn2-c2ccccc2)cc1 | -14% |
| CCCOC(=O)c1ccc(NC(=O)c2ccc(Br)o2)cc1 | 13% |
| Nc1c(C(=O)NCc2cccnc2)sc(=S)n1-c1ccccc1 | u |
| NC(=O)C1CCN(c2ccc3c(c2)S(=O)(=O)c2ccccc2C3=O)CC1 | 1% |
| O=C(NCc1ccc(F)cc1)c1cc(C(=O)C2CC2)c[nH]1 | 1% |
| O=C(CSc1ccc(Br)cc1)NCC(c1ccco1)N1CCCCC1 (centres undefined) | 11% |
| O=c1[nH]cnc2c1ncn2C1OC(CO)C(O)C1O (centres undefined) | 8%&5%&-1%&-9% |
| CC(C)[C@H](NC(=O)c1ccc(Cl)c([N+](=O)[O-])c1)C(=O)NCc1ccc(F)cc1 | 1% |
| O=C(COc1nc2ccccc2nc1N1CCOCC1)NC1CCCCC1 | -20% |
| Cn1c(=O)c2c(nc(/C=C/c3cccc(Cl)c3)n2C)n(C)c1=O | 5%&-16%&-13% |
| C/C(=N/NC(=O)CNC(=O)c1cccnc1)c1ccc(Cl)cc1 | -4% |

Additional entries follow.
| molecule | VDR inh |
| --- | --- |
| COC(=O)Nc1ccc(S(=O)(=O)Nc2cc(OC)nc(OC)n2)cc1 | 12% |
| O=C(NCC1COCCO1)C1CCN(S(=O)(=O)c2ccccc2)CC1 (centres undefined) | 15% |
| O=C(COC(=O)c1ccc(Cl)c(S(=O)(=O)N2CCCCC2)c1)NCCc1ccccc1 | -3% |
| CSc1nn(Cc2ccc(F)cc2)c(N)c1S(=O)(=O)c1ccc(Cl)cc1 | 3% |
| Cc1nc2cc(NC(=O)NCc3ccc4c(c3)OCO4)ccc2o1 | -7% |
| CCC1Oc2ccccc2N(CC(=O)NCCCN2CCN(c3ccc(OC)cc3)CC2)C1=O (centres undefined) | -13% |
| COC(=O)c1ccc(CSc2nc3ccccc3c(=O)n2C)o1 | -8% |
| CCOC(=O)c1ccc(NC(=O)NS(=O)(=O)c2ccc(C)cc2)cc1 | 11% |
| CCOC(=O)C(/C=N/c1cc(C)nn1-c1ccccc1)=C(\C)O | -1% |
| CCOCCCNC(=O)CN(Cc1ccc(Cl)cc1)S(C)(=O)=O | -4% |
| Cc1cc2c(cc(C(=O)NCc3cccnc3)n2Cc2ccc(Cl)cc2)o1 | -3% |
| Cc1ccc(C)c(N=Cc2cc3c(cc2[N+](=O)[O-])OCO3)c1 | 79µM* |
| O=C(CCNC(=O)c1ccccc1Cl)Nc1ccncc1 | 17% |
| Cc1ccc(Cc2c(C)c(C#N)c3[nH]c4ccccc4n3c2=O)cc1 | 6% |
| O=C(O)c1c(Cl)nc2ccccn12 | -3% |
| CC(C)c1nc2sc3c(SCC(=O)NCc4ccco4)ncnc3c2c2c1CCC2 | -10% |
| CSc1ccc(S(=O)(=O)N2CC(=O)Nc3ccccc32)cc1 | -9% |
| O=C(/C=C/c1ccccc1)Nc1nc(-c2ccncc2)cs1 | 16% |
| CCOC(=O)Cn1cc(C(=O)C2CC2)c2ccccc21 | 3% |
| CN(C)NC1=CC(=[N+]2CCCC2)CC(C)(C)C1 | -2% |
| COc1cc2c(cc1OC)/C(=C/C(=O)c1ccccc1)NCC2 | -9% |
| COC(=O)c1cc(NS(=O)(=O)c2ccc(N3CCOCC3)c(NC(C)=O)c2)cc(C(=O)OC)c1 | 3% |
| COc1cc(CN(C(C)=O)c2ccccc2C(=O)O)ccc1[N+](=O)[O-] | -14% |
| CCN(CC)C(=O)CN1C(=O)/C(=C/c2ccccc2)SC1=S | u |
| Cn1cc([C@@H]2C[C@H]3CN(Cc4cccc(Cl)c4)C(=O)[C@]34CCCN24)c(-c2ccccc2)n1 | -1% |
| Cc1cc(OC(C)C(=O)Nc2c(C(=O)c3ccc(F)cc3)oc3ccccc23)ccc1Cl (centres undefined) | -5% |
| COc1ccc(N2C(=O)CC(Sc3nccc(C)n3)C2=O)cc1 (centres undefined) | 7% |
| CC(=NNC(=O)c1ccncc1)c1ccc(O)cc1O | 2% |
| O=C(N/C(=C/c1cccc([N+](=O)[O-])c1)C(=O)N1CCOCC1)c1ccc(Br)cc1 | -10% |
| COc1ccc2c(c1)c(=O)c(C(=O)c1ccccc1)cn2Cc1ccccc1 | -1% |
| C=CCNC(=S)NNc1nc(Nc2ccccc2)nc(N2CCCCC2)n1 | 1% |
| Nc1c(S(=O)(=O)c2ccccc2)c2nc3ccccc3nc2n1/N=C/c1ccco1 | 30% |
| CC(C)CNC(=O)[C@H]1N2C(=O)c3ccccc3C2SC1(C)C (some centres undefined) | 4% |
